Compound activity from PubChem BioAssay.
Biofilm kill mix = mixtures killing C. albicans biofilm; C. albicans biofilm persisters + clotrimazole, fluorescence viability; primary screen in compound mixtures of four per well; inhibition, % at 7.6 µM; 0.02% of 120,000 active; AID 1242;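 active means inhibition above 30.3% in the primary screen of four-compound pools, then above 30% when the compound was retested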;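 further: compounds exposed to preformed 24 h biofilms for 48 h; the number belongs to the whole pool; some results filed as inactive read as strong as hits; inactives centre near 12; 0% = biofilm with clotrimazole alone and 100% = kill control; retested singly at about 60 µM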
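Assay system: C. albicans biofilms / Medium: RPMI/MOPS medium, pH 7.0 / Schedule: biofilm formation 24 h, compound exposure 48 h, 37 °C / Measured by: Alamar Blue fluorescence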
The depositor's hits bear a star.

SMILES	Biofilm kill mix
COc1ccc(-n2c(CN3CCC(C)CC3)nc3ccc([N+](=O)[O-])cc3c2=O)c(OC)c1	5
O=C(COC(=O)c1ccccc1Sc1ccc(C(F)(F)F)cc1[N+](=O)[O-])NC(=O)NC1CCCC1	19
O=C(/C=N/NC(=O)c1ccccc1Br)c1ccccc1	7
NC(=O)c1ccc(-c2ccccc2F)cc1	0
CCS(=O)(=O)N1Cc2ccccc2CC1C(=O)Nc1nc(C)cs1 (centres undefined)	14
COc1ccccc1Nc1cc(N2CCOCC2)c2nonc2c1[N+](=O)[O-]	18
O=c1cc(N2CCCCC2)c(-c2ccccc2)nn1Cc1cccc(F)c1	12
COc1cc(/C=C/C(=O)OCC(=O)Nc2ccc(C)c(S(=O)(=O)N3CCCCC3)c2)ccc1O	16
CC(=O)Nc1ccc(S(=O)(=O)Nc2nc3ccc([N+](=O)[O-])cc3s2)cc1	14
COc1ccc2[nH]c(O)c(N=O)c2c1	19
O=C1CCCC(O)=C1N=Nc1ccc(S(=O)(=O)N2CCOCC2)cc1	20
CS(=O)(=O)N(CC(=O)NC1CC1)C1CCCCC1	8
CCN1CCN(c2c(/C=C3\SC(=S)N(Cc4ccco4)C3=O)c(C)c(C#N)c(=O)n2C)CC1	20
CCCCCCn1nc(C(=O)Nc2nc3c(s2)CCCC3)c2ccccc2c1=O	9
O=C(c1cc([N+](=O)[O-])cc([N+](=O)[O-])c1)N1CCN(Cc2ccc3c(c2)OCO3)CC1	0
COc1ccccc1CNC(=O)CSc1nnc2ccc(-c3cccnc3)nn12	0
O=[N+]([O-])c1cccc(-c2csc(N/N=C/c3cccc(O)c3)n2)c1	8
Fc1ccc(NC(=S)Nc2ccccc2OC(F)F)cc1Cl	8
CC1(C)CC(=O)C(C2C3=C(CC(C)(C)CC3=O)OC3=C2C(=O)CC(C)(C)C3)=C(O)C1	14
COCCOC(=O)C1=C(C)Nc2ncnn2C1c1ccco1 (centres undefined)	20
COc1cccc2c(N/N=C/c3ccco3)cc(C)nc12	9
COc1cc2c(cc1NC(=O)COC(=O)[C@@H](NS(=O)(=O)c1ccccc1)C(C)C)oc1ccccc12	15
COc1ccc(-c2nc(CN3CCCCC3c3cccnc3)c(C)o2)c(F)c1 (centres undefined)	20
Cc1ccnc(NC(c2ccccn2)c2c(C)[nH]c3ccccc23)c1 (centres undefined)	4
COc1ccc(/C=N/NC(=O)c2ccccc2[N+](=O)[O-])cc1CN1CCc2cc(OC)c(OC)cc2C1C (centres undefined)	7
O=C(OCc1nnc(-c2ccccc2)o1)c1ccc(CO)cc1	6
Cc1nc2sc(-c3ccccc3)cc2c(=O)n1/N=C/N(C)C	10
C=CCSc1nc2sc(C)c(C)c2c(=O)n1N	12
CCCCNC(=S)N1CCN(c2ccccc2Cl)CC1	12
COc1ccc(S(=O)(=O)N2CCOC2CNC(=O)C(=O)NCCc2ccc(OC)c(OC)c2)cc1C (centres undefined)	7

Reformatted: results already given.
Fc1ccc(NC(=S)Nc2ccccc2OC(F)F)cc1Cl
  Biofilm kill mix: 8
CC1(C)CC(=O)C(C2C3=C(CC(C)(C)CC3=O)OC3=C2C(=O)CC(C)(C)C3)=C(O)C1
  Biofilm kill mix: 14
COCCOC(=O)C1=C(C)Nc2ncnn2C1c1ccco1 (centres undefined)
  Biofilm kill mix: 20

(continued)
SMILES	Biofilm kill mix
Fc1ccc(/C=N/Nc2ncnc3nc[nH]c23)cc1F	15
CCOC(=O)C1=C(C)N=C2SC=C(C)N2C1c1ccc(OC)cc1 (centres undefined)	30
CC(=O)N/C(=C\c1ccccc1)C(=O)Nc1ccccc1C	13
CC(C)NC(=O)C(=O)NNC(=O)CCc1ccccc1	10
O=C(CSc1nnc(-c2ccco2)o1)N1CCN(c2ccccc2)CC1	7
Cc1cccc2cc(C#N)c(NCCNC(=O)COc3ccccc3)nc12	28
Nc1c(C(=O)Nc2ccccc2)sc2nc(-c3cccnc3)ccc12	17
O=S(=O)(NCc1ccc2c(c1)OCO2)c1cccc2nsnc12	19
OC1(CNCc2ccccc2)C2CC3CC(C2)CC1C3 (centres undefined)	13
O=C(Nc1cccs1)OCCN1CCN(Cc2ccccc2)CCC1=O	13
O=C1CN(C(=O)CN2C(=O)NC3(CCCCC3)C2=O)c2ccccc2N1	11
NC(=O)COC(=O)CC(NC(N)=O)c1ccc(Cl)cc1 (centres undefined)	27
COC(=O)c1ccc(NC(=O)Cc2ccc(F)cc2)cc1	15
CC(NCCOCCOc1ccccc1)c1ccccc1 (centres undefined)	13
COc1ccc(-c2nnn(CC(=O)N(c3cccc(O)c3)C(C)C(=O)NC3CCCC3)n2)cc1OC (centres undefined)	16
c1csc(-c2noc(CN3CCN4CCCC4C3)n2)c1 (centres undefined)	19
CN(C)CCOc1ccc(C(C)(C)c2ccccc2)cc1	-2
C/C(=N\NC(=O)c1cc(C)nc2ccccc12)c1cccs1	6
COc1cccc(NC(=O)COC(=O)Cc2ccc(Br)cc2)c1	15
CC(CCc1ccccc1)NC(=O)Cc1cccs1 (centres undefined)	22
COc1ccc(CNCCC(c2ccc(F)cc2)c2ccc(OC)cc2)cc1 (centres undefined)	11
O=S(=O)(Nc1cccc(CCc2ccccn2)c1)c1cc(Cl)ccc1Cl	22
Cc1[nH]c2ccccc2c1/C=C(\C#N)C(=O)NCC1CCCO1 (centres undefined)	7
NC(=O)c1ccc(N2CCC(C(N)=O)CC2)c([N+](=O)[O-])c1	-2
CCOC(=O)c1c(N)sc(-c2ccccc2)c1C	-7
COCCn1nnnc1C(c1ccccn1)N1CCN(c2cccc(C)c2C)CC1 (centres undefined)	14
CS(=O)(=O)c1ccc2nc(NC(=O)c3ccc(NS(=O)(=O)c4cccc([N+](=O)[O-])c4)cc3)sc2c1	20
CC(C)CC(COCc1ccc(Cl)cc1)N1CCN(C(=O)c2ccc(Cl)cc2Cl)CCC1=O (centres undefined)	-1
Cc1ccccc1NCc1ccc(O)c2ncccc12	9
O=C(NCc1csc(-c2cccs2)n1)C1CC1	13
O=C(Nc1ccc(F)cc1)OCCOc1ccc([N+](=O)[O-])cc1	9
Cc1ccc(N(CC(=O)N/N=C/c2ccc(OCC(N)=O)cc2)S(C)(=O)=O)cc1Cl	12
Cc1ccccc1NS(=O)(=O)c1ccc2c(c1)n(C)c(=O)n2C	8
COCCN(C(=S)Nc1cc(C)cc(C)c1)C(C)c1cccs1 (centres undefined)	34
CC1(C)CC(CC(=O)Nc2ccccc2[N+](=O)[O-])C(=O)O1 (centres undefined)	24
COc1cccc(/C=N/n2cnc3c(cnn3-c3ccccc3)c2=O)c1	-7
CC(=O)NC(NC(=S)Nc1c(C)n(C)n(-c2ccccc2)c1=O)C(Cl)(Cl)Cl (centres undefined)	12
COc1cc(C2C(S(=O)(=O)c3ccccc3)CON2C)ccc1OCc1ccc(F)cc1 (centres undefined)	17
COC(=O)C(CSCc1ccccc1)NC(=O)CSc1nc(C)cc(=O)[nH]1 (centres undefined)	14
COC(=O)[C@H]1C[C@@H]1[C@H](NS(=O)(=O)c1ccc2ccccc2c1)c1ccccc1	6
Nc1cc([N+](=O)[O-])ccc1Nc1ccc(O)cc1	18
Cc1ccc(S(=O)(=O)N(C)C)cc1NC(=S)N1CCc2ccccc21	12
CCOc1ccc(N(CC(=O)Nc2ccccc2C)S(=O)(=O)c2c(C)[nH]c(=O)[nH]c2=O)cc1	16
CSc1cccc(CNC(=O)CC2C(=O)NCCN2CC(C)(C)C)c1 (centres undefined)	-1
Nc1ccccc1-c1nc2ccccc2s1	3
O=C(Cc1c(Sc2ccccc2)c2ccccc2n1Cc1ccccc1)NCCO	0
Cn1ncc([N+](=O)[O-])c1C(=O)N/N=C/c1cccc([N+](=O)[O-])c1	26
Nc1ncnc(N2CCc3ccccc32)c1[N+](=O)[O-]	14
CCOc1ccc(C(=O)/C=C/c2ccc(OC)c(OC)c2)cc1	13
COC(=O)c1cc2c(cc1N)OCCO2	31
O=C(NC(=S)Nc1nc(-c2cccc([N+](=O)[O-])c2)cs1)c1cc(Cl)ccc1Cl	27
C=CCc1cc(/C=C2/NC(=O)N(CC(=O)OC)C2=O)cc(OC)c1O	2
CN1C(=O)C(CC(=O)Nc2ccc(F)cc2)N(Cc2ccco2)C1=S (centres undefined)	6
CCOC(=O)N1CCN(C(c2ccccc2)c2sc3nc(C)nn3c2O)CC1 (centres undefined)	9
O=C(Nc1ccc2c(c1)CCC2)c1c(F)cccc1Cl	9
COc1ccc(-n2nc3c(c2NC(=O)c2ccc(S(=O)(=O)N4CCOCC4)cc2)CS(=O)(=O)C3)cc1	24
COC(=O)c1cc(OC)c(OC)cc1NC(=O)c1cc(C(C)(C)C)oc1C	18
N#CC12COC3(CCCCC3C1(C#N)C#N)OC2=N (centres undefined)	25
CC(/C=C/c1ccccc1)=N\Nc1nc(C)cc(C)n1	9
CC(=O)CSc1nnc2cc(C)c3ccccc3n12	9

In the list so far, these contain an NH in an aromatic ring:
SMILES	Biofilm kill mix
COc1ccc2[nH]c(O)c(N=O)c2c1	19
Cc1ccnc(NC(c2ccccn2)c2c(C)[nH]c3ccccc23)c1 (centres undefined)	4
Fc1ccc(/C=N/Nc2ncnc3nc[nH]c23)cc1F	15
Cc1[nH]c2ccccc2c1/C=C(\C#N)C(=O)NCC1CCCO1 (centres undefined)	7
COC(=O)C(CSCc1ccccc1)NC(=O)CSc1nc(C)cc(=O)[nH]1 (centres undefined)	14
CCOc1ccc(N(CC(=O)Nc2ccccc2C)S(=O)(=O)c2c(C)[nH]c(=O)[nH]c2=O)cc1	16

Carrying on:
SMILES	Biofilm kill mix
O=C(O)c1cccc(NC(=S)NC(=O)c2ccc(-c3ccccc3)cc2)c1	17
COc1ccc(N2CCN(C(=O)CCCCn3c(=O)[nH]c4ccsc4c3=O)CC2)cc1	15
Cc1ccc(Nc2nc(N)c(C#N)c(CC#N)c2C#N)cc1	22
Cc1cc(=O)[nH]c2nnnn12	8
CN(CC(=O)NC1CC(C)(C)NC(C)(C)C1)S(=O)(=O)c1cc(Cl)ccc1Cl	8
O=C(Nc1ccccc1)c1ccc(Nc2c([N+](=O)[O-])cc([N+](=O)[O-])c3ccccc23)cc1	15
CC(C)(C)c1cc(=O)n2[nH]c(N)nc2n1	9
C=CCN=C1CC(C)(C)C(C(=O)OC)C(O)=C1C(=O)CCC (centres undefined)	-6
CCn1c(CNC(=O)c2ccc(OC)c(OC)c2)nnc1SCC(=O)Nc1ccc(OC)cc1	7
COc1ccc(-c2csc3nc(C)nc(N4CCCCC4)c23)cc1OC	23
CN(C)CCCCOc1ccc(F)cc1	10
Cc1ccc2nc(Nc3nc(C)cc(-c4ccccc4)n3)[nH]c(=O)c2c1	5
C/C(=N\NS(=O)(=O)c1ccccc1)c1cc(Cl)cc(Cl)c1O	17
COc1cccc(NC(=O)C2C3CCC4C(CCC32)C4(Cl)Cl)c1 (centres undefined)	13
COc1ccc(CN2CCCC(CNC(=O)c3ccc(F)cc3)C2)c(F)c1 (centres undefined)	19
CCSc1nnc(NC(=O)/C=C/c2ccco2)s1	22
O=C(O)C1CC=CCC1C(=O)NC1CCCCC1 (centres undefined)	12
OCCC1CN(Cc2cccc(-n3cccn3)c2)CCN1Cc1ccccc1 (centres undefined)	3
O=C(Nc1ccc(F)cc1F)C1CCN(C(=O)c2ccc(Br)cc2)CC1	9
O=C(CSC1=NC2(CCCCCC2)N=C1c1ccccc1)Nc1ccc2c(c1)OCCO2	7
O=C(c1ccc(NC(=S)NCc2ccc(Cl)cc2)cc1)N1CCCCC1	7
COc1ccc(NS(=O)(=O)c2ccc3oc(SCc4ccc(F)cc4)nc3c2)cc1	13
O=C(NCCCN1CCOCC1)c1ccc(N2CCCC2)c([N+](=O)[O-])c1	9
COc1ccc(C(=O)n2cc(C(=O)c3cc(C)ccc3O)cn2)cc1	13
CC(C)CC(CO)N1CCN(C(=O)c2cccc(C(F)(F)F)c2)CCC1=O (centres undefined)	15
COc1ccc(NC(=S)N(CCN(C)C)Cc2cccs2)cc1	0
Cc1ccc(/C=C/C(=O)OCC(=O)N2CC(=O)Nc3ccccc32)o1	13
CC(C)c1ccc2[nH]c3c(c2c1)CCCC3=O	2
CC(=O)c1ccc(N2CCN(C(=O)CCCn3c(=O)[nH]c4ccc(Br)cc4c3=O)CC2)cc1	9
O=C(Nc1ccc(NC(=O)c2ccccn2)cc1)C(=O)Nc1ccc2c(c1)OCCO2	17

A second format for some results above:
molecule | Biofilm kill mix
O=C(O)C1CC=CCC1C(=O)NC1CCCCC1 (centres undefined) | 12
CCSc1nnc(NC(=O)/C=C/c2ccco2)s1 | 22
O=C(CSC1=NC2(CCCCCC2)N=C1c1ccccc1)Nc1ccc2c(c1)OCCO2 | 7
O=C(c1ccc(NC(=S)NCc2ccc(Cl)cc2)cc1)N1CCCCC1 | 7
COc1ccc(C(=O)n2cc(C(=O)c3cc(C)ccc3O)cn2)cc1 | 13
COc1ccc(NS(=O)(=O)c2ccc3oc(SCc4ccc(F)cc4)nc3c2)cc1 | 13

The results go on.
SMILES	Biofilm kill mix
O=C1C2(CCCC13COC(c1ccc(O)cc1)OC3)COC(c1ccc(O)cc1)OC2 (centres undefined)	1
CCc1ccc(NC(=O)COC(=O)C2(c3ccc(Cl)cc3)CCCC2)cc1	11
Cc1ccc2nc(-c3ccc4c(c3)OCCO4)cn2c1	14
Cc1ccnc(NC(=O)c2sc3ccccc3c2Cl)c1	-3
Cc1cccc(C)c1NS(=O)(=O)c1ccc(NC(=O)c2ccc(Cl)c([N+](=O)[O-])c2)cc1	19
CN(C)S(=O)(=O)c1ccc(C(=O)Nc2ccccc2[N+](=O)[O-])cc1	13
c1ccc(C2OC3c4cccc5cccc(c45)C3N2c2ccccc2)cc1 (centres undefined)	15
Cn1nnc(NC(=S)NC(=O)c2ccco2)n1	-7
Cc1ccc(-c2nn3c(C)nnc3c3ccccc23)cc1S(=O)(=O)NCCO	26
O=C(NC1=NCCCCC1)c1cccc2ccccc12	7
CCc1n[nH]c(=S)n1/N=C/c1cc(Br)c(O)c(OC)c1	24
COc1ccc(-c2csc(NC(=S)NC(=O)/C=C/c3ccco3)n2)cc1OC	2
COc1ccc(/C=C/c2ccccc2)cc1[C@H]1[C@@H]2C=CCC[C@@]2(C)C(=O)N1Cc1ccccc1	13

Only part of the results is shown (hit frequency here may not be typical).
